Screening results (PubChem)
Sfp PPTase inh = Sfp phosphopantetheinyl transferase inhibition; Potency, µM, for inactives: max response, negative = inhibition, usual class: inhibitors; Q9F4F7; 310,000 compounds, 3.5% hits; Biochemical Sfp PPTase activity, qHTS; active means well fitted inhibition curve with a large enough effect; inconclusive means small, poorly fitted or top-dose-only effect, or another doubt; inactive means no such curve, though single readings can be large or run the other way;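 further: the enzyme is Sfp with the accession as filed and its product quenches rhodamine fluorescence; potency means the concentration at half of the fitted maximal effect; 0% = enzyme reaction without inhibitor and -100% = no enzyme wells; top concentration of the series not given in the record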
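Reaction rates are the 30-min fluorescence difference (ex 525, em 598 nm) in wells containing 15 nM Sfp, 5 uM rhodamine-CoA and 12.5 uM BHQ-2-YbbR at pH 7.6 with 10 mM MgCl2.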
gsp ag = gsp mutant agonism. gsp mutant cells, cAMP HTRF, 30 min; control for the full effect not named in the record. Potency, µM (doses to about 76.9 µM), inactives show top-dose activation (cAMP increase), most hits filed as activators. 340,000 compounds, 0.13% hits. AID 624287; active = well fitted activation curve with a large enough effect; inconclusive = small, poorly fitted or top-dose-only effect, or another doubt; inactive = no such curve, though single readings can be large or run the other way; cell line not stated here;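 further: phosphodiesterase inhibitor Ro 20-1724 added with compounds to block cAMP breakdown; potency means the concentration at half of the fitted maximal effect; nearly all actives have a fitted effect of over 60% in size; about a fifth of the inactives were tested at one dose only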
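Cells stably selected in G418 were plated at 2000/well, grown 16-24 hr, then given compounds in DMSO with the PDE inhibitor […] (300 uM solution added) for 30 min at 37C; cAMP was read by HTRF.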
ClpP mod = qHTS Assay for Activators of ClpP. purified B. subtilis ClpP, FRET peptide cleavage, 20 min. Potency, µM (series often up to 57.5 µM), for the others: top-dose activity change, negative = active. ATP-dependent Clp protease proteolytic subunit (Bacillus subtilis (strain 168)), P80244. 340,000 compounds, 1.9% hits. AID 651965, 2013; active = well fitted falling curve with a large enough effect; inconclusive = small, poorly fitted or top-dose-only effect; inactive = no such curve, though single readings can be large or run the other way; further: potency means the concentration at half of the fitted maximal effect; the source files actives as falling curves though it sought activators and does not explain the sign; nearly all actives have a fitted effect of over 65% in size; many hits overshoot -100%
Target sequence (P80244 whole entry, looked up): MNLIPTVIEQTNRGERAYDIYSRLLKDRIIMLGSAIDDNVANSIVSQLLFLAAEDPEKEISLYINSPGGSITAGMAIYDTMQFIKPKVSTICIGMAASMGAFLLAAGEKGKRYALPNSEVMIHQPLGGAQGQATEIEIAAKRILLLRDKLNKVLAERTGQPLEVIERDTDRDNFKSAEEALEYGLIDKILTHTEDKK
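ClpP 10 microg/mL final, pH 8 Tris/KCl buffer with BSA, glycerol, Tween-20; compound pinned in; FRET-FV substrate; RT 20 min; Ex320/Em430; ΔFRET vs ADEP 5.8 microM, DMSO, no enzyme.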
D2 PAM = human D2 receptor positive allosteric modulation; P14416; 360,000 compounds, 0.23% hits; potentiation, % (no concentration beside the values); AID 624464; DiscoveRx D2 beta-arrestin cells, luminescence, 90 min; 100% = 57 uM dopamine signal; active = potentiation of 50% or more; inconclusive = 30% to 50%; inactive = 30% or less;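 further: compound concentration not given in the record; tested on top of an EC20 dose of dopamine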
Target sequence (P14416 whole entry, looked up): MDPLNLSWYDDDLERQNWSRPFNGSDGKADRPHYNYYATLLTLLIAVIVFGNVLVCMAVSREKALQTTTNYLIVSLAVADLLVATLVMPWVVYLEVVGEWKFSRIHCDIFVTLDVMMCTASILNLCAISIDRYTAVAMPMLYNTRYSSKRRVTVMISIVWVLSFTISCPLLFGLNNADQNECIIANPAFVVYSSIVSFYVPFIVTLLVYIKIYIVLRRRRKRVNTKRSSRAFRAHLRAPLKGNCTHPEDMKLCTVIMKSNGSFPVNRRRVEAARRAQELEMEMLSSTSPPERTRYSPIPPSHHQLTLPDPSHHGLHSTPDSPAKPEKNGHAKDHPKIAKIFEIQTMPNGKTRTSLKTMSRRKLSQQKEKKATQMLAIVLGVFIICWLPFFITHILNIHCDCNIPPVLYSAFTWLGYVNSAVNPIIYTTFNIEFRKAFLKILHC
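D2 cells co-treated with compound plus 50 nM dopamine (EC20) for 90 min at 37 deg C to detect potentiation. Beta-arrestin recruitment was read as enzyme-fragment luminescence after 1 h at ambient temperature. Full response was set by 57 uM dopamine.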
Menin-MLL FL inh = menin-MLL binding inhibition, fluorescein peptide. 290,000 tested, under 10 active. AID 1766. FP activity change, % at 61.4 µM. Fluorescence polarization, fluorescein-MLL peptide displacement from menin; inconclusive = falling polarisation curve, or a change in total fluorescence; inactive = total fluorescence flat and polarisation flat or rising; no compound was filed as active; the % refers to the polarisation; negative = inhibition;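 further: % of control where 0% means no effect; inhibitors lower the polarisation; unlabelled MLL peptide was the positive control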
gsp antag = gsp mutant antagonism | Potency, µM (series often up to 76.9 µM), inactives show top-dose activity change, negative = inhibition, hits mostly inhibitors | gsp-mutant cells, cAMP HTRF, 30 min; control for the full effect not named in the record | 340,000 compounds, 0.4% hits; active = falling curve of any shape with a large fitted effect; inconclusive = falling curve, mostly with a smaller effect; inactive = flat or rising curve; cell line not stated here;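 further: intracellular cAMP measured with PDE inhibitor Ro 20-1724 present during compound exposure; potency means the concentration at half of the fitted maximal effect; on the % scale 0 is the no-effect control and ±100 the full control effect; nearly all actives have a fitted effect of over 65% in size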
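G418-selected cells were plated in DMEM/10% FBS for 16-24 h at 37C, then treated with compounds plus the PDE inhibitor […] (300 uM solution added) for 30 min at 37C. Intracellular cAMP was measured by HTRF after 30 min lysis at room temperature.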
TRPV1 potentiator = human TRPV1 potentiation | TRPV1-expressing cells, Fluo-8 calcium influx, capsaicin EC20 potentiation; host cell line not named in the record; control for the full effect not named in the record | potentiation, % at 8.33 µM | 320,000 compounds, 0.02% hits | AID 540277; active means potentiation above 80%; inconclusive means 30% to 80%; inactive means below 30%; further: 0% is about no effect
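TRPV1-expressing cells were cultured overnight at 35.5C and loaded with Fluo-8 calcium dye for 40 to 90 min at room temperature. After a 10 s baseline, compound was added and calcium influx was read kinetically for 3 min (ex 480/em 520 nm).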
* marks the source's active call; other numbers are inactive results; ? = inconclusive; . = not tested or not shown; & = joins results of further samples; [ ] = dose if it differs, or a comment. No enrichment for hits. About 5.1% of those tested had a hit in this group.

SMILES	Sfp PPTase inh	gsp ag	ClpP mod	D2 PAM	Menin-MLL FL inh	gsp antag	TRPV1 potentiator
O=C(NCCc1cccs1)C1CC(c2ccccc2F)=NO1 (stereo not given)	14%	.	1.9%	2	1.4	4%	27
CCc1ccc(CNCCSc2nnnn2C)cc1	-13%	-9%	-1.3%	-10	-1.7	10%	12
CC1CCc2sc(C(=O)NNC(=S)NC3CC3)cc2C1 (stereo not given)	11%	9%	16%	-12	.	9%	4
COC(=O)c1ccc2c(=O)n(CC3CCCO3)c(SCC(=O)Nc3ccccc3Cl)nc2c1 (stereo not given)	-1%	-1%	-2.9%	2	4.3	3%	2
COCCCNC(=O)CCCn1c(=O)[nH]c2ccccc2c1=O	8%	?	-18%	-7	0.6	14%	13
COCCNC(=O)C(c1ccccc1F)N(C(=O)C(=O)NC1CCCC1)C1CCCCC1 (stereo not given)	-4%	1%	.	-6	0.4	0%	7
Cc1ccc(NC(=O)Nc2nc(-c3ccc(C)s3)cs2)cc1	14%	1%	-0.6%	0	3.7	6%	1
Cc1cc(N)c2cc(NC(=O)/C=C/c3ccccc3Cl)ccc2n1	25µM*	27%	0.0%	-18	-16	2%	-3
COc1ccc(N2CCN(S(=O)(=O)c3cccc(C(F)(F)F)c3)CC2)cc1	4%	1%	0.6%	0	0.5	-5%	?
COc1cccc2cc(C(N)=O)oc12	2%	-8%	?	-18	3.4	10%	-7
O=C(NCc1cccc(F)c1)c1cccc2c1C(=O)c1ccc(N3CCCC3)cc1S2(=O)=O	.	19%	-0.3%	20	.	-23%	.
CCOC(=O)C1CCCN(C(=O)c2cccc(S(=O)(=O)N3CCCC3)c2)C1 (stereo not given)	.	15%	1.7%	-3	.	-3%	9
CSCCC(NC(=O)c1ccc(Cl)cc1Cl)C(=O)N1CC(C)OC(C)C1 (stereo not given)	.	7%	-1.7%	-12	.	3%	10
C=CCNS(=O)(=O)NC(=O)C1=C(N2CCCC2)COC1=O	.	-1%	1.8%	-3	.	4%	.
CCOc1ccc(C2CC(=O)NC3=C2C(=O)CCC3)cc1Cl (stereo not given)	-2%	?	-0.8%	-23	0.7	10%[15.4 µM]	16
Cc1ccc(S(=O)(=O)NCC2CCC(C(=O)NCCCN3CCCC3=O)CC2)cc1 (stereo not given)	18%	?	1.4%	0	.	23%	6
CN(Cc1cccc(Cl)c1Cl)C(=O)CCNC(=O)c1ccco1	.	0%	.	-9	.	4%	.
CCC(=O)N(C)C[C@@H]1Oc2cc(Br)ccc2S(=O)(=O)N([C@@H](C)CO)C[C@@H]1C	.	-9%	2.6%	4	.	.	.
CCOc1ccc(C(=O)NC(C)CCc2ccccc2)cc1 (stereo not given)	13%	-8%	-0.8%	-7	-3.8	-6%	-6
CC(=O)Nc1ccccc1OCc1cnc(Cl)s1	32%[activator]	24%	.	-2	0.6	5%	7
COc1ccc2c(c1)c(=O)oc1cc(OCC(=O)NCC3CCC(C(=O)O)CC3)ccc12 (stereo not given)	21%	.	5.0%	-9	0.1	-16%	19
CCOC(=O)c1[nH]c(C)c(C(=O)C(C)C)c1C	14%	-1%	-2.4%	-1	3.4	2%	2
O=C(COC(=O)c1ccc(CO)cc1)Nc1ccc(OC(F)F)cc1	10%	0%[15.4 µM]	.	1	5.9	.	11
Cc1ccc2oc(=O)c3cc(C(=O)NCCCN4CCc5ccccc5C4)sc3c2c1	2%	-17%	4.0%	-7	2.3	-5%	-2
O=[N+]([O-])c1cc(Cl)ccc1N1CCOCC1	-2%	-1%	-2.0%	-6	0.0	8%	-1
COc1cc(OC)cc(-c2nc(=S)n3ccsc3n2)c1	16%	-8%[15.4 µM]	.	-1	-0.4	.	-1
COc1cccc(NC(=O)CCC(=O)Nc2cc(OC)c(NC(=O)c3cccs3)cc2OC)c1	12%	2%[15.4 µM]	.	7	-0.3	-12%	-4
COc1ccc(N2C(=O)C3C(C2=O)C2C=CC3C23CC3)c([N+](=O)[O-])c1 (stereo not given)	-8%	19%	.	-4	0.3	-2%	24
COc1ccc(OC(C)C(=O)NC2CCCCCC2)cc1 (stereo not given)	.	?	1.0%	-13	.	13%	.
CCOCCCNC(=O)c1cc(-c2ccc(Br)s2)nc2ccccc12	5%	41%[15.4 µM]	-1.4%	-6	17	-11%	-9

Continued, overlapping the part above by 3 compounds.
SMILES	Sfp PPTase inh	gsp ag	ClpP mod	D2 PAM	Menin-MLL FL inh	gsp antag	TRPV1 potentiator
COc1ccc(N2C(=O)C3C(C2=O)C2C=CC3C23CC3)c([N+](=O)[O-])c1 (stereo not given)	-8%	19%	.	-4	0.3	-2%	24
COc1ccc(OC(C)C(=O)NC2CCCCCC2)cc1 (stereo not given)	.	?	1.0%	-13	.	13%	.
CCOCCCNC(=O)c1cc(-c2ccc(Br)s2)nc2ccccc12	5%	41%[15.4 µM]	-1.4%	-6	17	-11%	-9
O=[N+]([O-])c1ccc(-n2ccnc2)cc1	9%	2%[15.4 µM]	.	-3	-0.6	11%	.
O=C(NNC(=S)Nc1ccc(F)cc1)c1cccc([N+](=O)[O-])c1	5%	-13%	.	-10	0.8	-5%	-6
CC[C@H](C)C(N)c1cn([C@@H](CC(N)=O)C(=O)N2CCNCC2)nn1 (stereo not given in full)	.	.	1.9%	-6	.	6%	-37
S=c1[nH]nc(-c2ccc(Br)cc2)n1-c1ccc(Br)cc1	22%	13%	-4.7%	-14	0.8	-9%	1
COC(=O)C1=C(C)N(CCC2=CCCCC2)C(=O)C1	-8%	2%	-0.7%	24	-3.2	-10%	-13
CC1CCN(c2c(NCC3CCC(C(=O)N4CCc5ccccc5C4)CC3)c(=O)c2=O)CC1 (stereo not given)	6%	4%	0.5%	-5	0.6	-12%	0
Cc1cc(C(=O)NCc2ccccc2)c(=O)[nH]c1C	17%	1%	80%	-24	0.6	-9%	2
CCOC(=O)c1sc(NC(=O)CSc2nc(C)cc(-c3ccccc3)n2)c(C#N)c1C	8.9µM*	-14%	1.3%	0	2.4	5%	26
O=C(CN1C(=O)NC2(CCCC2)C1=O)Nc1cccc(C(F)(F)F)c1	19%	0%[15.4 µM]	.	-1	2.8	7%	9
CCC(CC)C(=O)NCCc1cc2cc(C)c(C)cc2[nH]c1=O	16%	-33%[inhibitor]	-7.4%	-7	3.4	-4%	-8
Oc1ccc(C=NNC(=S)Nc2ccccc2)nc1	.	-53%[inhibitor]	3.7%	0	.	.	.
CN(CC(=O)Nc1ccccc1Cl)C(=O)c1ccc(-c2cccc(C(F)(F)F)c2)o1	.	-21%	-1.5%	0	.	-7%	-17
CC(NC(=O)COC(=O)c1ccccc1SCC(=O)N1CCCC1)c1ccccc1 (stereo not given)	.	?	0.2%	13	.	12%	7
O=C(Cn1c(SCC(=O)NC2CCCC2)nnc1-c1ccncc1)Nc1ccc2c(c1)OCO2	-14%	-11%[15.4 µM]	0.5%	-7	2.3	-1%	-7
CCc1n[nH]c(=S)n1/N=C/c1cc(Br)c(OC)cc1OC	-19%	-5%	-1.7%	-9	.	-14%	-13
CCOc1ccc(S(=O)(=O)NCCSCc2ccco2)cc1	-15%	?	-0.6%	15	-0.2	?	8
O=C(Nc1cccc(C(F)(F)F)c1)c1ccc2nc(-c3ccco3)c(-c3ccco3)nc2c1	28µM*	-29%	-1.6%	?	?	-9%	-1
CCc1nonc1NC(=O)c1oc2ccc(Br)cc2c1C	15%	-22%	-6.7%&-0.8%	-2	.	10%	-5
CCOC(=O)c1sc(=S)n(-c2cc(F)ccc2F)c1N	56µM*	16%	0.5%	-1	0.0	12%	-7
COc1ccc(NC(=O)C2CC(=O)N/C(=N/N=C/c3ccco3)S2)cc1 (stereo not given)	-20%	0%	.	-3	0.4	1%	-21
C[C@H](NS(=O)(=O)c1ccccc1)C(=O)OCC(=O)NC(=O)Nc1ccc2c(c1)OCCO2	7%	7%[15.4 µM]	-3.1%	2	6.2	-3%	-1
COCCNC(=S)N/N=C(\C)c1cc2ccccc2o1	15%	?	-3.0%	-8	4.8	7%	-11
Cc1ccc(N(CC(=O)N2CCOCC2)S(C)(=O)=O)cc1C	8%	-48%[inhibitor]	-1.7%	18	-3.1	2%	12
O=[N+]([O-])c1ccc2c(c1)Cc1cc(F)ccc1-2	.	17%	.	-4	.	5%	.
COc1ccc(CNC(=O)CSc2nccn(-c3ccc(F)c(F)c3)c2=O)cc1	.	-15%	?	24	.	1%	?
CC(C)=CCN1CCN(Cc2cccn2-c2ccccn2)CC1CCO (stereo not given)	2%	-3%[15.4 µM]	28µM*	-6	3.2	4%	4
O=C(c1cccs1)N(c1ccc(Cl)cc1)C1C=CS(=O)(=O)C1 (stereo not given)	1%	?	.	-2	-0.8	-1%	-3
CCn1c(/C=C2\C(=O)N(C(C)C)c3ccccc32)nc2ccccc2c1=O	-14%	-41%[inhibitor]	-3.0%	-13	3.1	-15%	-17
CNc1nc2ccccc2n1N	3%	-14%	-0.9%	-1	.	2%	-15
CCNC(=S)NNC(=O)c1c(Cl)c(C)nn1C	0%	-16%	0.6%	-20	1.5	-5%	3
O=C1CCC(/C=C/c2ccccc2)=NN1Cc1ccccc1Cl	-9%	-1%	-1.5%	-20	-0.6	-7%	-1
COc1cc(/C=N/NC(=O)c2csc3c2CCCC3)cc(OC)c1O	-2%	-3%	-0.9%	13	5.8	0%	-14
CCc1ccc(C(=O)NCc2ccc(Cl)cc2)cc1	7%	-9%	2.3%	-25	5.9	15%	-14
COc1ccc(Cl)cc1NC(=O)CN(C)C(=O)CSc1ccc2c(c1)OCCO2	.	4%	0.3%	-7	.	-17%	8
CCOC(=O)c1sc2nc3c(cc2c1N)COC(C)(C)C3	2%	-29%	-25%	0	-0.3	9%	-14
CCn1cc(C(=O)NC(=S)Nc2cccc(O)c2)cn1	79µM*	-1%	1.2%	-8	-3.7	-8%	1
C#CCOC(=O)CN1C(=O)c2cccc3cccc(c23)C1=O	26%	-1%[15.4 µM]	7.6%	3	-0.9	7%	16
